Source: PubChem (PCMD)
Calb biofilm kill – mixture kills Candida albicans biofilm cells; C. albicans biofilm persisters + clotrimazole, fluorescence viability; primary screen in compound mixtures of four per well; inhibition, % at 7.6 µM; 120,000 compounds, 0.02% hits; AID 1242;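 active = inhibition above 30.3% in the primary screen of four-compound pools, then above 30% when the compound was retested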;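 note: compounds exposed to preformed 24 h biofilms for 48 h; the number belongs to the whole pool; some results filed as inactive read as strong as hits; inactives centre near 12; 0% = biofilm with clotrimazole alone and 100% = kill control; retested singly at about 60 µM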
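Assay system: C. albicans biofilms / Medium: RPMI/MOPS medium, pH 7.0 / Schedule: biofilm formation 24 h, compound exposure 48 h, 37 °C / Measured by: Alamar Blue fluorescence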
* marks the source's active call; other numbers are inactive results. Not all compounds are listed; the hit share may differ from the screen's.

molecule,Calb biofilm kill
COc1ccc(-c2nc3ccccc3n2OCC(=O)O)cc1,12
CS(=O)(=O)NCC(c1cccnc1)N1CCN(c2ccc(F)cc2)CC1 (stereo unspecified),19
COc1ccc2nc(/C(C#N)=C\c3ccc(C(=O)O)cc3)[nH]c2c1,5
CCOc1ccc(-c2nc3n(c(=O)c2C#N)CCS3)cc1,18
CCN(CC)C(=O)/C(=C/c1ccc2c(c1)OCO2)NC(=O)c1ccc(Br)cc1,23
COCCCNC(=O)CNC(=O)c1cn(-c2ccccc2OC)c(=O)c2ccccc12,16
COc1ccc(CCNC(=O)C(=O)Nc2ccc3c(c2)OCO3)cc1OC,12
CN(C)S(=O)(=O)c1ccc(C(=O)OCC(=O)Nc2sc3c(c2C#N)CCCCC3)cc1,8
O=C(CCCCCn1c(=S)[nH]c2ccc(N3CCOCC3)cc2c1=O)NCc1cccc(Cl)c1,8
O=C(CCSc1ccccc1)NCCSCc1ccco1,17
C/C(CC(=O)NC12CC3CC(CC(C3)C1)C2)=N\NC(=O)c1ccc(C)cc1,12
CCc1nnc(NS(=O)(=O)c2ccc(NC(=O)/C=C/c3ccc(F)cc3)cc2)s1,5
NC(=O)COC(=O)c1ccc(-c2ccc(O)cc2)cc1,30
CC(=O)c1cccc(NC(=O)c2c(C)nn(-c3ccccc3)c2Cl)c1,13
COc1ccc(CNC(=O)c2cc(SC)ccc2Cl)cc1OC,-30
Cc1nc(C)c(-c2csc(Nc3cccc(O)c3)n2)s1,18
CCOc1ccc(NS(=O)(=O)c2ccc(OC)c(NC(=O)c3ccc4c(c3)OCCO4)c2)cc1,6
O=C(Nc1cccc(S(=O)(=O)N2CCCCC2)c1)c1cnccn1,-3
Cc1cc(CN(C)C(=O)c2cc(COc3ccc(F)cc3Cl)on2)n[nH]1,20
Cc1cc(C(=O)Oc2cccnc2)ccc1[N+](=O)[O-],7
CC(=O)N/C(N)=N/c1nc2cc(C)ccc2o1,17
Cc1cc(C)c[n+](C2=C([O-])c3ccccc3C(=O)/C2=N\S(=O)(=O)c2cccs2)c1,15
N#CCC(=O)Nc1ccc(C(=O)OCC(=O)N(Cc2ccccc2)C2CCS(=O)(=O)C2)cc1 (stereo unspecified),-8
CCc1nnc2n1N=C(c1cccc([N+](=O)[O-])c1)CS2,11
CNC(=O)COC(=O)/C=C/c1nc2ccccc2s1,12
CCOc1ccc(/C(O)=C2/C(=O)C(=O)N(CCN(CC)CC)C2c2cccs2)cc1 (stereo unspecified),19
Cc1scc(C(=O)NNC(=S)NCC2CCCO2)c1-c1ccccc1 (stereo unspecified),8
Cc1nnc(SCCn2c(N3CCC(Cc4ccccc4)CC3)nc3c2c(=O)[nH]c(=O)n3C)s1,18
O=C(Nc1ccccc1C(=O)N1CCCC1)c1ccccc1,21
COc1ccc(N2CCN(C(=O)CSc3nc4[nH]ncc4c(=O)n3-c3ccc(Br)cc3)CC2)cc1,5
CNC(=S)SCCOc1ccccc1C,19
FC(F)(F)c1ccc(CN2C[C@@H]3C(c4ccc(Cl)nc4)C4(c5ccccc5)CC3(C4)[C@H]2c2ccccc2)cc1 (stereo partly specified),14
O=C(CN1CCN(C(c2ccccc2)c2ccccc2)CC1)N1N=CCC1c1ccccc1 (stereo unspecified),20
COc1cc(OC)c2c(-c3ccccc3)cc(=O)oc2c1C(CC(=O)N1CCOCC1)c1ccc2c(c1)OCO2 (stereo unspecified),18
O=C(COC(=O)/C=C/c1ccc(Cl)cc1Cl)Nc1ccc2c(c1)OCCO2,11
CCOC(=O)c1sc2nc(C)nc(SCC(=O)NC3CCS(=O)(=O)C3)c2c1C (stereo unspecified),-15
O=C(Nc1ccc(OC(F)(F)F)cc1)c1ccc(-n2cncn2)nc1,0
CC(C)(C)N(C(=O)Cn1nnc(-c2ccc(F)cc2)n1)C(C(=O)NC1CCCC1)c1ccncc1 (stereo unspecified),14
COc1cc(-c2n[nH]c(=S)n2-c2ccc(C)cc2)cc(OC)c1OC,3
O=C(NCCc1c[nH]c2ccccc12)c1cc2ccccc2oc1=O,18
O=C(CSc1nc(O)c(C2CCCCC2)c(=O)[nH]1)N1CCOCC1,19
NNc1ccccc1C(F)(F)F,7
O=[N+]([O-])c1ccccc1S(=O)(=O)NC1CCCC1,28
C/C(Cl)=C\Cn1c(O)c(N=NC(N)=S)c2ccccc21,13
CCOc1cc(N2CCOCC2)c(OCC)cc1NC(=O)COC(=O)c1cc(C)cc(C)c1,21
CCCn1c2ccccc2c2nnc(SCC(=O)Nc3c(C)n(C)n(-c4ccccc4)c3=O)nc21,14
Cc1[nH]c2ccccc2c1C(C[N+](=O)[O-])c1cccs1 (stereo unspecified),15
CC(C)Nc1nc(Cl)nc(N(C#N)CN2C(=O)c3ccccc3C2=O)n1,18
COc1ccc(C2CC(c3ccccc3)=NN2c2ccc(Cl)c(C(=O)O)c2)cc1 (stereo unspecified),-5
COc1ccc(-n2c(-c3ccc(Br)cc3)c[n+]3c2CCc2ccccc2-3)cc1,25
CCCC(=O)NC(=S)Nc1cc(-c2nc3ncccc3o2)ccc1C,27
COc1ccc(S(=O)(=O)N2CCOCC2)cc1NC(=O)CSc1n[nH]c(=O)n1C1CC1,4
O=C(N/N=C/c1ccc(Cl)c([N+](=O)[O-])c1)c1cc(-c2ccccc2)nc2ccccc12,24
Cc1ccc(S(=O)(=O)CCC(=O)OC(C)C(=O)c2c(C)[nH]c3ccccc23)cc1 (stereo unspecified),14
CC1CCC2(CC1)NC(=O)N(CC(=O)Nc1cccc(S(=O)(=O)N3CCOCC3)c1)C2=O (stereo unspecified),15
Cc1ccc2cc(CN(Cc3ccco3)C(=O)NC3CCCCC3)c(=O)[nH]c2c1C,11
Cc1ccc(C(C)C)c(OCC(=O)NN=C(CCl)CCl)c1,22
CCOC(=O)CS(=O)(=O)c1ccc(O)cc1,7
Cc1ccc(-c2ccc(/C=N/O)o2)cc1[N+](=O)[O-],17
COc1cc(CN2CCN(c3ccccc3F)CC2)c([N+](=O)[O-])cc1OC,6

Pulled one by one from the list above (5):
molecule,Calb biofilm kill
Cc1[nH]c2ccccc2c1C(C[N+](=O)[O-])c1cccs1 (stereo unspecified),15
COc1ccc(-n2c(-c3ccc(Br)cc3)c[n+]3c2CCc2ccccc2-3)cc1,25
C/C(Cl)=C\Cn1c(O)c(N=NC(N)=S)c2ccccc21,13
COc1ccc(C2CC(c3ccccc3)=NN2c2ccc(Cl)c(C(=O)O)c2)cc1 (stereo unspecified),-5
CCCC(=O)NC(=S)Nc1cc(-c2nc3ncccc3o2)ccc1C,27

Later entries
molecule,Calb biofilm kill
CCOP(=O)(OCC)c1nc(-c2ccc(F)cc2)oc1NCc1ccccc1,17
COc1ccc(-c2[nH]ncc2CNCCn2cccn2)c(F)c1,3
CCCOc1ccc(C(O)(CCC)CCN2CCCCC2)cc1 (stereo unspecified),8
CC(/C=N/NC(=O)c1ccccn1)=C\c1ccco1,51
O=C1C(Cc2c[nH]c3ccccc23)NC(=S)N1C1CCCCC1 (stereo unspecified),13
Cc1cc(=O)oc2cc(OC(=O)CCCCCN3C(=O)c4ccccc4C3=O)ccc12,26
CCCCNc1cc(Cl)nc(N)n1,12
CCc1nc2ccccc2n1CC(O)COCC1CC=CCC1 (stereo unspecified),-9
COC(=O)c1sccc1NN1C(=O)c2ccccc2C1=O,14
Cc1ccc(OCC(=O)NNc2c3ccccc3nc3ccccc23)cc1,15
CCc1cc2cc3c(cc2nc1SCC(=O)OC(C)C)OCO3,16
Cc1cccc(C)c1NC(=S)N(c1ccccc1)C(C)C,10
CCCc1nc(SCC(=O)NNC(=O)c2ccc(OC)cc2)c2ccccc2n1,11
Nc1nc(CCl)nc(Nc2ccc3ccccc3c2)n1,17
Cc1ccc(S(=O)(=O)CC(c2ccccc2)N2CCCCC2)cc1 (stereo unspecified),0
O=C(Nc1cccnc1)NC1CCCCC1,17
O=C(COC(=O)c1ccc(Sc2ccccc2)c([N+](=O)[O-])c1)NC1CCS(=O)(=O)C1 (stereo unspecified),5
CC(=O)Nc1ccc(S(=O)(=O)NCC2CCC(C(=O)NCc3ccccc3)CC2)cc1 (stereo unspecified),7
COc1cc2cccc(OC)c(=O)c2c(O)c1OC,6
CCOc1ccc(NC(=O)CC2C(=O)N(c3ccc(OC)cc3)C(=O)N2CCc2ccc(OC)c(OC)c2)cc1 (stereo unspecified),12

Nothing new here: an excerpt of the list.
molecule,Calb biofilm kill
COc1cc2cccc(OC)c(=O)c2c(O)c1OC,6
CCOc1ccc(NC(=O)CC2C(=O)N(c3ccc(OC)cc3)C(=O)N2CCc2ccc(OC)c(OC)c2)cc1 (stereo unspecified),12

Remaining list, next part:
| structure | Calb biofilm kill |
| --- | --- |
| Cc1ccc(S(=O)(=O)NC(C(=O)Oc2cc3oc(=O)cc(C)c3cc2Cl)C(C)C)cc1 (stereo unspecified) | 9 |
| COCCNC(=S)N1CCC(c2nc(-c3ccc(F)cc3)no2)CC1 | 7 |
| COc1cc(NC(=O)CCNS(=O)(=O)c2ccc3c(c2)CCC(=O)N3)cc(OC)c1 | 13 |
| CN(CCO)C1=NS(=O)(=O)c2cc([N+](=O)[O-])ccc21 | 15 |
| Cn1c(CCCOc2ccc(Cl)cc2Cl)nnc1SCC(=O)Nc1ccc(F)c(Cl)c1 | 3 |
| O=C(Nc1ccc(Cl)c(Cl)c1)Nc1cc(C(=O)NC2CC2)ccc1Cl | 13 |
| O=C(O)c1c2c(nc3ccc(F)cc13)CCC2 | 13 |
| NS(=O)(=O)c1ccc(NC(CNS(=O)(=O)c2ccccc2)c2ccccc2)cc1 (stereo unspecified) | 17 |
| O=C(CCCOc1ccc(Cl)cc1Cl)NNC(=O)C1CCC1 | 10 |
| COc1ccc(/C=C/C(=O)c2oc3ccc(F)cc3c2C)cc1 | 5 |
| COCCn1c(SCC(=O)N2CCN(c3ccccc3)CC2)nc2c(c1=O)SC(C)C2 (stereo unspecified) | 21 |
| Cc1ccc(S(=O)(=O)/C(C#N)=C/c2c(Oc3ccc(Cl)cc3)nc3c(C)cccn3c2=O)cc1 | 7 |
| Cc1ccc(NC(=O)C(=O)NCCOc2ccc(Cl)cc2)c(C)c1 | 18 |
| CCOC(=O)C1(C)C=C(Nc2ccc(OC)cc2)C(=O)N1c1ccc(OC)cc1 (stereo unspecified) | 6 |
| CC(=O)Nc1ccc(Oc2cc(N)cc([N+](=O)[O-])c2)cc1 | 21 |
| COc1ccc(C(=O)NC2CCN(C(=S)Nc3ccc(C)c(C)c3)CC2)cc1 | 9 |
| CCOc1ccc(C(=O)Nc2ccc(-c3cc4ccccc4oc3=O)c(C)c2)cc1[N+](=O)[O-] | 12 |
| Cc1nnc(NC(=O)CSc2ccc3nnc(-c4ccccn4)n3n2)s1 | 6 |
| CN(C(=O)COC(=O)/C=C/c1cccc([N+](=O)[O-])c1)C1CCS(=O)(=O)C1 (stereo unspecified) | 10 |
| Cc1ccc(NC(=O)CN2C(=O)S/C(=C\c3ccc(-c4cccc(C(=O)O)c4C)o3)C2=O)cc1C | 7 |
| Cc1ccc(N2C(=O)C(NC(=O)c3ccccc3F)(C(F)(F)F)C3=C2CC(C)(C)CC3=O)cc1 (stereo unspecified) | 7 |
| Nc1nccc(-c2cc(-c3ccc(Cl)cc3Cl)no2)n1 | 13 |
| CNC(=S)N(CCc1ccc(S(N)(=O)=O)cc1)C1CC(=O)N(c2ccccc2F)C1=O (stereo unspecified) | 13 |
| Cn1nnnc1SCC(=O)NC(=O)c1cccc([N+](=O)[O-])c1 | 22 |
| CSc1nc2ccc(NC(=O)c3cc4ccccc4o3)cc2s1 | 17 |
| CCOC(=O)c1sc(N)c(C(=O)Nc2ccccc2OC)c1C | -3 |
| O=C(CCN1CCN(c2ccccc2)CC1)N/N=C/c1ccccc1OC(F)F | 0 |
| COC(=O)c1ccc(NC(=S)NC2CC(C)(C)NC(C)(C)C2)cc1 | 10 |
| COC(=O)c1c(-c2ccc(C)cc2)csc1NC(=S)NC(=O)c1cc(OC)cc(OC)c1 | 11 |
| CC(=O)N1C(O)CC(C)N1c1ccccc1 (stereo unspecified) | 17 |
| CCOc1cc(/C=C2\SC(=O)N(c3ccc(O)cc3)C2=O)ccc1O | 19 |
| Cc1ccc(N=C(N)N=C(N)N)c(C)c1 | 14 |
| Cc1cccc(NC(=S)N/N=C/c2cccc(O)c2)c1C | 25 |
| Cc1nnc(NC(=O)CSc2nnc(C)n2Cc2ccccc2)s1 | 5 |
| CCc1ccc(Nc2nnc(SCC(=O)Nc3sccc3C(N)=O)s2)cc1 | 10 |
| C#Cc1ccc([C@H]2C=C(C(=O)N3CCN(Cc4ccc5c(c4)OCO5)CC3)O[C@@H](OCC)[C@@H]2CCCO)cc1 | 25 |
| CSc1ccc(NC(=O)c2cccnc2)cc1C#N | 10 |
| COC(=O)c1ccc(C(=O)OC)c(NC(=S)N2CCN(c3cc(Cl)ccc3C)CC2)c1 | 13 |
| O=C(O)c1cc(C(=O)O)cc(-c2ccc(/C=c3/sc4nc5ccccc5n4c3=O)o2)c1 | 2 |
| O=C(Nc1ccccc1N1CCOCC1)c1ccc2nc[nH]c2c1 | 13 |
| Cc1ccc(Cl)cc1NC(=O)C1CCCCC1C(=O)O (stereo unspecified) | 17 |
| C#CCN1C(=O)S/C(=C\c2ccc(N3CCOCC3)cc2C)C1=O | 8 |
| CCCCn1c(N)c(NCCC)c(=O)[nH]c1=O | 14 |
| COC(=O)C1=C(C)N(c2ccc(OC)cc2)C(C)=C(C(=O)OC)C1c1ccc(OC)cc1 | 30 |
| Cc1ccc(-c2c[n+](Cc3ccc(Cl)cc3)c3n2CCC3)cc1 | 22 |
| CCCOc1nc2c(c(=O)n(C)c(=O)n2C)n1C | 14 |

Given as labelled records: part of the list above
> Cn1c(CCCOc2ccc(Cl)cc2Cl)nnc1SCC(=O)Nc1ccc(F)c(Cl)c1
  Calb biofilm kill: 3
> CCN(CC)C(=O)/C(=C/c1ccc2c(c1)OCO2)NC(=O)c1ccc(Br)cc1
  Calb biofilm kill: 23
> CCCn1c2ccccc2c2nnc(SCC(=O)Nc3c(C)n(C)n(-c4ccccc4)c3=O)nc21
  Calb biofilm kill: 14
> CCc1cc2cc3c(cc2nc1SCC(=O)OC(C)C)OCO3
  Calb biofilm kill: 16
